Sfp inh: Sfp phosphopantetheinyl transferase inhibition; Biochemical Sfp PPTase activity, qHTS; Potency, µM, without a hit: max response, negative = inhibition, usual class: inhibitors; hit rate 3.5% among 310,000; active means well fitted inhibition curve with a large enough effect; inconclusive means small, poorly fitted or top-dose-only effect, or another doubt; inactive means no such curve, though single readings can be large or run the other way;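 further: the enzyme is Sfp with the accession as filed and its product quenches rhodamine fluorescence; potency means the concentration at half of the fitted maximal effect; 0% = enzyme reaction without inhibitor and -100% = no enzyme wells; top concentration of the series not given in the record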
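Reaction rates are the 30-min fluorescence difference (ex 525, em 598 nm) in wells containing 15 nM Sfp, 5 uM rhodamine-CoA and 12.5 uM BHQ-2-YbbR at pH 7.6 with 10 mM MgCl2.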
ClpP mod: qHTS Assay for Activators of ClpP; ATP-dependent Clp protease proteolytic subunit (Bacillus subtilis (strain 168)), P80244; purified B. subtilis ClpP, FRET peptide cleavage, 20 min; Potency, µM (top dose mostly 57.5 µM), without a hit: at the top dose activity change, negative = active; hit rate 1.9% among 340,000; AID 651965, 2013; active = well fitted falling curve with a large enough effect; inconclusive = small, poorly fitted or top-dose-only effect; inactive = no such curve, though single readings can be large or run the other way; further: potency means the concentration at half of the fitted maximal effect; the source files actives as falling curves though it sought activators and does not explain the sign; nearly all actives have a fitted effect of over 65% in size; many hits overshoot -100%
Target sequence (P80244 whole entry, looked up): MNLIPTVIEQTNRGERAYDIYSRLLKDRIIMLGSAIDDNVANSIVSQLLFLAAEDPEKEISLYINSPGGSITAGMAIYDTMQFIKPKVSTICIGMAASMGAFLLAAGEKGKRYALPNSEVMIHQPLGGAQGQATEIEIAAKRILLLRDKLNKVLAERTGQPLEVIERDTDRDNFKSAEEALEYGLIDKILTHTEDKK
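Buffer: 100 mM Tris/HCl pH8, 100 mM KCl, 0.05% low protease BSA, 2.5% glycerol, 0.01% Tween-20. ClpP 10 microg/mL final; 20 min RT; delta FRET normalized to ADEP and DMSO controls.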
TRPML1 agonist: activates the human TRPML1 channel. hit rate 0.12% among 410,000. TRPML1-expressing cells, Ca2+ dye fluorescence, FDSS; host cell line not named in the record; reference of the full effect not given here. activation, % (concentration not given with the values). Q9GZU1; in the data active = activation above about 50%; inconclusive = about 30% to 50%; inactive = below about 30%; further: 0% is about no effect; the text of the record puts the active cut at 80%
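Kinetic FDSS Ca2+ read in Tet-induced TRPML1-DL cells (ABD Ca8 dye plus quencher, 45-90 min RT loading): baseline, then compound, then 110 s agonist window; EC80 agonist 54-4 at 4uM final added afterwards for a 110 s antagonist window.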
Menin MLL FP FL: menin-MLL binding inhibition, fluorescein peptide | FP activity change, % at 61.4 µM | Fluorescence polarization, fluorescein-MLL peptide displacement from menin | 290,000 tested, under 10 active | AID 1766; inconclusive = falling polarisation curve, or a change in total fluorescence; inactive = total fluorescence flat and polarisation flat or rising; no compound was filed as active; the % refers to the polarisation; negative = inhibition;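 further: % of control where 0% means no effect; inhibitors lower the polarisation; unlabelled MLL peptide was the positive control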
PINK1 expr mod: PINK1 expression modulation. PINK1 immunofluorescence, high-content cytometry, 24 h. Potency, µM (titrated, usually from 76.6 µM), inactives show at the top dose activation (PINK1 increase), actives largely listed as activators. hit rate 0.2% among 410,000. AID 624263; active = well fitted activation curve with a large enough effect; inconclusive = small, poorly fitted or top-dose-only effect; inactive = flat fitted curve, though single readings scatter; cell line not stated here;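 further: potency means the concentration at half of the fitted maximal effect; % of control where 0% means no effect; nearly all actives have a fitted effect of over 65% in size; a mitochondrial uncoupler was the plate control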
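Decision-based qHTS: stable cells, 24 h exposure to five compound concentrations, CCCP as control. Fixed cells stained for PINK1 plus nuclear, mitochondrial and cell markers, cytometer read.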
TRPML1 blocker: blocks the human TRPML1 channel; Q9GZU1; activity change, negative = inhibition, % (concentration not given with the values); TRPML1-inducible cells, Ca2+ dye fluorescence, FDSS; stronger effect = lower value; inhibition of EC80 agonist-evoked calcium signal; hit rate 0.02% among 390,000; in the data active means activity change below about -50%; inconclusive means about -30% to -50%; inactive means above about -30%;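 further: stimulus is agonist 54-4 at its EC80 concentration; on the % scale 0 is the no-effect control and ±100 the full control effect; compound concentration not given in the record; the text of the record puts the active cut at -80%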
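Calcium fluorescence in TRPML1-DL cells induced overnight with Tet: a 110 s read after compound pin addition, then a 110 s antagonist read after challenge with 54-4 at 4 uM final (EC80).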
TRPV1 PAM: enhances activation of the human vanilloid receptor TRPV1; hit rate 0.02% among 320,000; TRPV1-expressing cells, Fluo-8 calcium influx, capsaicin EC20 potentiation; host cell line not named in the record; control for the full effect not named in the record; Q8NER1; potentiation, % at 8.33 µM; active means potentiation above 80%; inconclusive means 30% to 80%; inactive means below 30%; further: 0% is about no effect
Target sequence (Q8NER1 whole entry, looked up): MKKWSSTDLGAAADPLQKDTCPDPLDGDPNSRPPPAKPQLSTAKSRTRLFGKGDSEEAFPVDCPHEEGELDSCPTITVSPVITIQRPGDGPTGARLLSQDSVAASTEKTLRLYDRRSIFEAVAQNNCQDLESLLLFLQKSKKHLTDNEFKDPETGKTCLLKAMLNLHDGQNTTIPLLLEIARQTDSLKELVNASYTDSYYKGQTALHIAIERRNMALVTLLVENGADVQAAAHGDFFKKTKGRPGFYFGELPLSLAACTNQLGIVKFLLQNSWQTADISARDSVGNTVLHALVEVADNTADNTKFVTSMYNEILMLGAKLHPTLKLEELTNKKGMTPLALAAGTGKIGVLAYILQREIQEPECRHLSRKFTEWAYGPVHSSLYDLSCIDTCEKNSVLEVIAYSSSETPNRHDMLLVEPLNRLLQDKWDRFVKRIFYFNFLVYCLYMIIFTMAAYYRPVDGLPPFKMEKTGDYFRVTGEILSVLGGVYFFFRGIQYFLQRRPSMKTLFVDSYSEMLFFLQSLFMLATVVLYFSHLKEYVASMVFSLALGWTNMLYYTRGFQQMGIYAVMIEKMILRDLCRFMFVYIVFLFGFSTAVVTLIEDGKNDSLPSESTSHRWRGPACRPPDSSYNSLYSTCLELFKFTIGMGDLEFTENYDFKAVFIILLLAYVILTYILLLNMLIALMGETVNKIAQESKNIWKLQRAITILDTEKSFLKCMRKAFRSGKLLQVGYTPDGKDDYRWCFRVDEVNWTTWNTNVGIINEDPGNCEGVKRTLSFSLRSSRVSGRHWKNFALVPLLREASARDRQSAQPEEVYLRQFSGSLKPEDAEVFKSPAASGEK
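Fluo-8 calcium influx in TRPV1-expressing cells, kinetic read (ex 480/em 520 nm). Compound added and read 3 min for agonist activity, followed by capsaicin at EC20 final and 2 min further read for enhancement.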
Active calls of the source: *; ? = inconclusive; / = not tested or not shown; & = joins results of further samples; [ ] = remark or other dose. Compounds were not picked by outcome. About 4.4% of those tested had a hit in this group.

SMILES	Sfp inh	ClpP mod	TRPML1 agonist	Menin MLL FP FL	PINK1 expr mod	TRPML1 blocker	TRPV1 PAM
COc1ccc(Cl)cc1C(=O)CSc1nc(N)cc(N)n1	-21.3%	1.9%	0.4	3.2	2.5%	-11.6	2.8
O=C(C(=O)N1CCN(c2ccc([N+](=O)[O-])cc2)CC1)c1cn(CC(=O)N2CCOCC2)c2ccccc12	2.3%	-1.0%	0.3	/	1.4%	-7.1	-3.7
COc1cc2c(C(=O)N3CCN(C)CC3)c(CSc3ccccc3)n(C)c2cc1Br	-6.9%	/	-0.4	0.6	-1.2%	-8.2	1.7
CCCNC(=O)c1ccc(Cl)c(Cl)c1	8.7%	-1.2%	1.8	1.6	-2.0%	-15.1	-20.6
COc1cc(NC(=O)c2nc3ccccc3nc2N2CCCCC2)cc(OC)c1OC	/	1.6%	0.5	/	1.4%	-9.7	/
Cc1ccc(NC(=O)CCNC(=O)c2ccccc2Cl)cc1S(=O)(=O)N(C)C	-2.7%	1.4%	0.3	-0.9	1.3%	-4.5	10.6
Cc1nn(C(C)C(=O)Nc2ccc(Cl)cn2)c(C)c1[N+](=O)[O-] (stereo not drawn)	7.0%	-1.6%	0.9	2.0	15.6%[38.3 µM]	-19.9	14.7
CCOc1ccc(C(=O)COC(=O)c2nc3nccc(C)n3n2)cc1	/	1.0%	-0.1	/	0.8%	10.0	14.8
O=C(COC(=O)c1ccc2c(c1)C(=O)N(CCc1ccccc1)C2=O)Nc1ccc(OC(F)F)cc1	-3.1%	1.6%	0.8	2.0	5.8%	-0.8	9.7
CCOC(=O)CN(C(=O)CSc1nnc(CNc2ccc(F)cc2)n1C)c1ccccc1	15.3%	-2.1%	2.3	6.2	-1.5%	-2.3	2.9
COc1ccc(C)cc1S(=O)(=O)Nc1ccccc1C	15.1%	-1.2%	0.1	2.8	-0.5%	13.4	3.7
Cc1ccc(CNC(=O)CC[C@H]2O[C@@H](n3cc(C)c(=O)[nH]c3=O)C[C@@H]2O)o1	/	0.5%	-0.3	/	-0.6%	7.5	/
COc1ccc(CNC(=O)c2cnc3sc(N4CCCC4)nn3c2=O)cc1OC	/	15.8µM*	-0.5	/	0.0%	-8.4	/
C/C(=N\NC(=O)c1ccc(Cl)cc1)c1cccc(NC(=O)c2cccnc2)c1	2.3%	-1.3%	-0.2	9.4	2.4%	-0.1	7.3
Cc1ccc(C)c(CN2CCCN(Cc3ccc(F)cc3)S2(=O)=O)c1	/	-0.1%	-0.3	/	0.7%	-0.6	/
O=[N+]([O-])c1cc(S(=O)(=O)Nc2ccccc2)ccc1N1CCN(c2ccc(O)cc2)CC1	56.2µM*	1.2%	-0.3	6.7	2.3%	3.8	-6.5
Cc1cc(OC(=O)c2ccccc2Br)c([N+](=O)[O-])c(=O)[nH]1	19.6%	-1.7%	-0.9	4.4	0.0%	-1.8	-4.4
Cc1cccc(OCCn2cc(/C=N/NC(=O)c3ccncc3)c3ccccc32)c1	-14.9%	1.4%	-0.4	2.4	?	39.3	-13.0
CCOC(=O)C1CCCN(C(=O)c2ccc3c(c2)N(Cc2cccc(Cl)c2)C(=O)c2ccccc2S3(=O)=O)C1 (stereo not drawn)	/	-3.2%	-0.3	/	1.3%	-10.4	/
O=C(NCCc1nc2ccccc2[nH]1)/C(=C/c1ccco1)NC(=O)c1ccc(Br)cc1	?	1.4%	1.7	-2.7	-0.7%	12.4	5.1
CCOc1cccc(CNCCNC(=O)c2nonc2N)c1	14.0%	-1.4%&-0.6%	2.5&-0.1	3.7	-0.4%	13.2&-2.1	-2.0
Cc1cc(C)cc(N2C(=O)CC(c3ccc(C(F)(F)F)cc3)C3=C2COC3=O)c1 (stereo not drawn)	/	-3.1%	1.9	/	3.8%	1.7	/
CC(=O)c1ccc(NC(=O)C(C)Sc2nnc(C3CC3)n2C2CC2)cc1 (stereo not drawn)	/	2.5%	0.7	/	-1.4%	-21.3	10.8
S=C(NCCc1ccccc1)N1CCCC1	/	0.4%	-0.6	/	2.1%	9.0	/
COc1ccc(OCC(=O)Nc2cccc(C(=O)OCc3cc(=O)n4nc(C)sc4n3)c2)cc1	/	-7.0%	3.6	/	-1.8%	-21.7	/

(listing goes on)
SMILES	Sfp inh	ClpP mod	TRPML1 agonist	Menin MLL FP FL	PINK1 expr mod	TRPML1 blocker	TRPV1 PAM
NSc1nc(N)c2nc(-c3ccccc3)c(-c3ccccc3)nc2n1	-17.1%	/	1.7	-0.2	-1.5%	-8.2	18.8
CS(=O)(=O)N1CCC[C@@]2(CCN(C(=O)Nc3ccccc3)C2)C1	-2.6%	/	/	0.3	-0.1%	/	/
Cc1sc2ncnc(SCC(=O)N3CCCCC3)c2c1C	2.8%	/	-0.2	-11.4	1.7%	-6.8	0.5
COC(=O)c1onc(-c2ccccc2)c1C(=O)OC	16.6%	0.9%	-0.9	4.5	2.7%	-6.7	-2.5
CCOc1ccccc1NC(=O)c1nnn(CC(=O)Nc2ccc(OC)c(OC)c2)c1N	/	8.5%	1.2	/	-11.9%	24.4	/
Cc1ccc(S(=O)(=O)N2CCN(c3nc(-c4cccs4)cc4ccccc34)CC2)cc1	/	4.0%	-0.3	/	1.7%	/	/
O=C(CN1C(=O)NC(c2ccccc2)(c2ccccc2)C1=O)N1CCN(c2ccc(F)cc2)CC1	/	-2.1%	0.0	/	3.4%	6.8	8.0
Cc1ccc(NC(=O)/C(=C/c2cccc([N+](=O)[O-])c2)NC(=O)C2CCCCC2)cc1	25.4%	3.8%	0.5	-2.6	25.6%[38.3 µM]	12.0	-6.2
CN1CCN(C(=O)C2CC(c3c(F)cccc3Cl)=NO2)CC1 (stereo not drawn)	8.2%	0.4%	0.3	1.5	1.8%[38.3 µM]	3.4	12.9
COC(=O)c1ccc(C(=O)OC)c(NC(=O)Nc2ccc3c(c2)OCO3)c1	2.7%	-1.0%	-0.9	0.7	-0.9%	-6.3	2.3
COc1ccc(/C=N/NC(=O)c2ccccc2OC)cc1COc1ccc(C)cc1	7.8%	25.1µM*	1.8	-2.9	5.7%	22.5	-9.2
O=C(c1csnn1)N1CCC[C@@]2(CCN(Cc3cc(C(F)(F)F)cc(C(F)(F)F)c3)C2)C1	7.1%	/	/	-1.0	0.9%	/	/
O=C(NCCCN1CCOCC1)c1cc(C(=O)C2CCCCC2)c[nH]1	-24.9%	/	0.0	-1.4	1.5%	-2.9	?
CCOc1ccc(N(CC(=O)Nc2ccc(C)cc2)S(=O)(=O)c2c(C)noc2C)cc1	23.1%	0.7%	0.1	3.0	5.9%	14.9	/
COc1ccc(-c2[nH]nc3c2C(c2ccccc2OC(=O)N2CCOCC2)C(C#N)=C(N)O3)cc1 (stereo not drawn)	-7.3%	0.1%	-0.2	-0.3	-2.5%[38.3 µM]	-3.6	-12.4
Cc1cc(=O)oc2cc(OCC(=O)OCC(=O)NC(=O)NC(C)C)ccc12	15.4%	4.3%	0.4	0.4	1.1%	-5.4	-3.4
O=C(COC(=O)CCS(=O)(=O)c1ccccc1)Nc1cc(S(=O)(=O)N2CCCCC2)ccc1Cl	/	-1.5%	-0.5	/	0.6%	2.3	13.3
Cc1ccn2cc(CNC(=O)c3cccs3)nc2c1	14.8%	-6.0%	-0.6	-1.0	-0.3%	-1.7	16.3
O=C(CSc1nncc2ccccc12)N1CCOCC1	1.7%	-0.3%	0.4	1.6	-4.3%[38.3 µM]	-23.6	-1.1
CC(=O)c1sc(-c2ccc(F)cc2)cc1NS(=O)(=O)c1ccccc1	10.4%	-11.5%	4.0	-0.9	12.0%	5.8	29.0
CC(Oc1ccc(F)cc1)C(=O)Oc1ccc(N(C)S(=O)(=O)c2ccccc2)cc1 (stereo not drawn)	/	-2.3%	3.8	/	-0.6%	62.9	-7.9
CC(C)[C@H](NS(=O)(=O)c1ccccc1)C(=O)OCn1nnc2ccccc2c1=O	7.3%	0.5%	0.7	1.8	0.7%	-10.2	-2.0
O=C(Nc1ccc(S(=O)(=O)N2CCCCC2)cc1)C1CCN(C(=O)c2ccco2)CC1	10.0%	/	-0.5	4.0	-1.7%	-8.7	-5.3
Cc1nc(N2CCN(C(=O)c3ccco3)CC2)c2oc3ccccc3c2n1	-7.1%	-7.8%	2.5	-1.3	7.0%	-2.4	-22.7
COc1ccc(CNC(=O)C2(C)Cc3c(-c4ccc(C(N)=O)cc4)ccnc3O2)cc1OC (stereo not drawn)	/	-1.2%	-0.7	/	-0.3%	/	/

(continued)
SMILES	Sfp inh	ClpP mod	TRPML1 agonist	Menin MLL FP FL	PINK1 expr mod	TRPML1 blocker	TRPV1 PAM
Cc1cc(C(=O)N2CCC2(C)C(=O)NS(=O)(=O)c2cccc(OC(F)F)c2)nn1C (stereo not drawn)	/	0.9%	-0.5	/	0.9%	/	/
CC1=CC(C)(C)N(C(=O)Nc2ccccc2)c2ccccc21	-3.6%	/	0.9	-0.2	-0.4%	-6.6	5.1
CCc1ccc(-n2cc(-c3ccc(F)cc3)[n+]3c2SCCC3)cc1	1.4%	/	0.3	-9.9	5.9%	1.5	1.5
Cc1c(N(C)S(=O)(=O)c2cccc(C(=O)NCC3CCCO3)c2)c(=O)n(-c2ccccc2)n1C (stereo not drawn)	/	-1.8%	-0.1	/	-0.8%	2.0	9.9
S=C1NCN(Cc2ccccc2)CN1	7.7%	-0.6%	0.8	3.7	0.2%	34.8	-0.9
O=C1Cc2cc(S(=O)(=O)N3CCNCC3)ccc2N1	/	104.3%	-0.4	/	-0.7%	-0.3	/
c1cc(-c2nc3cc(Cc4ccc5oc(-c6ccncc6)nc5c4)ccc3o2)ccn1	1.2%	/	/	1.4	/	/	5.4
CN(C)c1ccc(/C=C(/NC(=O)c2ccccc2)C(=O)N/N=C/c2ccc([N+](=O)[O-])c(O)c2)cc1	-7.8%	-2.0%	-0.5	3.0	2.0%[38.3 µM]	67.1	-10.9
Cc1cc(C)cc(NC(=O)CSc2nnc(Cc3cccn3C)n2-c2ccc(F)cc2)c1	0.2%	14.0%	1.1	7.1	0.8%	13.4	11.6
CC1CCC(NS(=O)(=O)c2ccc(Cl)nc2)CC1 (stereo not drawn)	/	20.0%	0.3	/	0.4%	-3.5	-2.4

Only TRPV1 PAM, Sfp inh and PINK1 expr mod, for some of the entries so far:
SMILES	TRPV1 PAM	Sfp inh	PINK1 expr mod
Cc1c(N(C)S(=O)(=O)c2cccc(C(=O)NCC3CCCO3)c2)c(=O)n(-c2ccccc2)n1C (stereo not drawn)	9.9	/	-0.8%
S=C1NCN(Cc2ccccc2)CN1	-0.9	7.7%	0.2%

Source: PubChem BioAssay (National Center for Advancing Translational Sciences (NCATS))
